Screens: PubChem, National Center for Advancing Translational Sciences (NCATS)
AmpC inh no det: blocks E. coli AmpC beta-lactamase in absence of detergent | AmpC nitrocefin hydrolysis, absorbance 480 nm, no detergent; potencies from a single point are estimates | AID 585 | P00811 | Potency, µM (doses to about 28.7 µM), inactives show at the highest dose activity change, negative = inhibition | 1.8% of 71,000 active; active = falling curve, for most hits resting on a single point; inconclusive = weak or doubtful change; inactive = flat or rising curve; also: % of control where 0% means no effect; about half of the hits show no inhibition at the top dose; a quarter of the inactives give rising signals
Target sequence (P00811 whole entry, looked up): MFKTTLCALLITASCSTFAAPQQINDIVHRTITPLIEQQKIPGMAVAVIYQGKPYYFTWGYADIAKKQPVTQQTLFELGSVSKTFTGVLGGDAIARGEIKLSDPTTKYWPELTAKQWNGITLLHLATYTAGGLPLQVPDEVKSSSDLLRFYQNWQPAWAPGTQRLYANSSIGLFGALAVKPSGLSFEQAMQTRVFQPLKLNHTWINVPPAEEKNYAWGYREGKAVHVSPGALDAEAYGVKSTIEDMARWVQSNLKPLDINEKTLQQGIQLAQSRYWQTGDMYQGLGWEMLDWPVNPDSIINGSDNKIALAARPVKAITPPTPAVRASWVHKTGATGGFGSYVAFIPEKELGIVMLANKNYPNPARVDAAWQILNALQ
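AmpC in 20 mM phosphate buffer pH 7.0 was preincubated 15 min at room temperature with compounds. Nitrocefin (800 uM stock) was then added and hydrolysis followed at 480 nm every 20 s for 4 min.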
* hit, by the source's call; ? = inconclusive; [ ] = dose if it differs, or a comment. Potency is read from the fitted curve at half-maximal effect.

| Structure | AmpC inh no det |
| --- | --- |
| Cc1nn(Cc2ccc(F)cc2)c(C)c1NC(=O)c1cc(-c2ccc3c(c2)OCO3)on1 | 23.2% |
| COCCCn1c(SCC(=O)OC2CCCCC2)nnc1-c1cccs1 | 27.3% |
| O=C(CN1CCC(Cc2ccccc2)CC1)NC(=O)NCc1ccco1 | 21.6% |
| Cc1cccc(C)c1N1C(=O)CC(N(O)c2ccccc2)C1=O (centres undefined) | -1.1% |
| COc1ccc(C(=O)c2ccc(OC)c(OC)c2)cc1OC | 28.6% |
| CCC12CN3CC(CC)(CN(C1)C31C(=O)N(C)c3ccc(C)cc31)C2=O (centres undefined) | 36.5% |
| CCOc1c(OC)cc(C2C(C#N)=C(N)Oc3n[nH]c(-c4ccncc4)c32)cc1OC (centres undefined) | -7.5% |
| Cc1cccc(C)c1OC[C@H](C)N | -12.6%[12.8 µM] |
| COc1ccc(CCNC(=O)C2CCCN(S(C)(=O)=O)C2)cc1OC (centres undefined) | -3.8% |
| COC(=O)CSC1=C(C#N)C(c2ccccc2OC)C(C(=O)OC)C(=O)N1 (centres undefined) | 17.0% |
| Cc1c(C(=O)N2CCCCC2)sc(NC(=O)C(C)C)c1C#N | 7.7% |
| CNC(=O)C1C2C=CC3(O2)C1C(=O)N(C1CC1)C3C(=O)NCc1ccc(OC)cc1 (centres undefined) | 12.7% |
| COc1cccc(OCc2nnc(SCC(=O)NCc3ccco3)n2CCc2ccccc2)c1 | 105.3% |
| O=C(O)c1ccc(F)c(S(=O)(=O)Nc2ccccc2)c1 | -6.3% |
| CCOc1ccc(N2CC(C(=O)Nc3cccc(C)c3C)CC2=O)cc1 (centres undefined) | 3.2% |
| CC(=O)N1c2ccc(S(=O)(=O)CCC(=O)O)cc2CC1C (centres undefined) | -3.2% |
| COc1ccc(C2c3c(oc4ccc(F)cc4c3=O)C(=O)N2CCN2CCOCC2)cc1OC (centres undefined) | 39.7% |
| CCOc1ccccc1N1CCN(C(=O)c2c(C)noc2C)CC1 | 38.7% |
| CCCc1cc(C(=O)Nc2cc(Br)ccc2O)no1 | 15.8µM*[single pt active] |
| O=C1c2cccc3c(N4CCCCC4)ccc(c23)C(=O)N1c1ccccn1 | 67.4% |
| C=CCNC(=O)c1ccc2c(c1)nnn2C | -7.4% |
| COc1ccccc1N1CSC2=C(C#N)C(c3ccc(SC)cc3)CC(=O)N2C1 (centres undefined) | 2.51µM* |
| Cc1ccc(S(=O)(=O)Nc2cc(C(=O)NCCN3CCCC3)ccc2N2CCCCC2)cc1 | 67.2% |
| COc1ccc(OC)c(S(=O)(=O)N2CCC(C(=O)Nc3ccc(C)c(C)c3)CC2)c1 | 31.9% |
| CC(C)N(c1ccccc1)c1ccc(NC(=O)C2CCCO2)cc1 (centres undefined) | 87.4% |
| COc1cc(CC(NC(C)=O)C(=O)NC2CCN(c3nc(C)cc(C)c3C#N)CC2)cc(OC)c1 (centres undefined) | 15.9% |
| CCO/C=C1/C(=O)N(CC)c2ccccc21 | 2.2% |
| CC(=O)NCC(=O)OCC(=O)c1ccc(C)c(C)c1 | -3.2% |
| O=C(NCC1CCCO1)C1CCC(=O)N1Cc1ccccc1Cl (centres undefined) | -6.4% |
| Cc1cccc(CNc2ncnc3[nH]ncc23)c1 | -1.6%[5.75 µM] |
| COc1nc(-c2ccccc2)ccc1-c1noc(COc2ccccc2)n1 | -6.5% |
| C=CCn1c(SCC(=O)/C(C#N)=C(\C)N)nc2sc(CC)cc2c1=O | 24.4% |
| O=C(CCn1nnc(-c2cccs2)n1)NCc1ccccc1Cl | 3.6% |
| CS(=O)(=O)N1CCC2(CCCN(C(=O)Nc3cccc(F)c3)C2)CC1 | 11.5% |
| CCOC(=O)N1CCN(C(=O)CN(C2CCCCC2)S(C)(=O)=O)CC1 | 10.0% |
| O=C(c1ccco1)N1CCC2(CCCN(c3cccc(-c4ccccc4)c3)C2)CC1 | 56.3% |
| O=C(NCc1ccco1)c1ccc(N2CCCC2=O)cc1 | -2.7% |
| CN(CC(=O)Nc1ccc(F)c(F)c1)S(=O)(=O)c1cccc2nsnc12 | -0.7% |
| Cc1ccc(CNC(=O)CN2C(=O)C3(OCCCO3)c3ccccc32)cc1 | 7.9% |
| CN1CCN(c2ccccc2NS(=O)(=O)c2ccc3c(c2)CCN3C(=O)C2CCC2)CC1 | 117.5% |
| COc1cccc(NC(=O)CSc2nnc(-c3cccc(OC(C)C)c3)n2N)c1 | 31.3% |
| Nc1nc(CN2CCN(c3ccccc3)CC2)nc(N2CCCc3ccccc32)n1 | 116.1% |
| CCOC(=O)N1CCN(C(=O)c2ccc3nc(N4CCCCC4)sc3c2)CC1 | 66.6% |
| O=C(CN(Cc1cccs1)C(=O)CNS(=O)(=O)c1ccc(F)cc1)NCc1ccco1 | 4.1% |
| CC(C)c1ccc(NC(=O)C2CCCCC2C(=O)O)cc1 (centres undefined) | 1.3% |
| CCN(CC)CCN1C(=O)C(=O)/C(=C(/O)c2ccccc2)C1c1ccccc1F (centres undefined) | 17.1% |
| CC(C)(CO)NCc1ccccc1OCC(=O)Nc1ccccc1 | -7.1% |
| CN(C)CCNc1ncnc2ccccc12 | -8.5% |
| O=C1CC(c2ccc(S(=O)(=O)NCc3ccccc3)cc2)CN1 (centres undefined) | 3.98µM*[single pt active] |
| CCCCn1nnnc1NCc1cccs1 | -5.4% |
| CCOC(=O)Cn1c(CN2CCOCC2)nc2c1c(=O)n(C)c(=O)n2C | 95.7% |
| Cc1ccccc1-c1ccc(=O)n(CC(=O)Nc2ccc(N3CCOCC3)cc2)n1 | 65.2% |
| CCCCCN(C(=O)NC(=O)Nn1cnnc1)S(C)(=O)=O | -4.7% |
| CC(=O)Nc1nc(C)nc(C)c1C(C)=O | 5.6% |
| CCN(CCO)C(=O)C12CCC(C)(C(=O)C1)C2(C)C (centres undefined) | 12.8% |
| CCC(=O)N1CCc2cc(S(=O)(=O)NC(C(=O)NCc3ccccc3)C(C)C)ccc21 (centres undefined) | 8.8% |
| CN(C)c1ccc(/C(=N\O)C(F)(F)F)cc1 | -6.4% |
| NCC(O)COCCC12CC3CC(CC(C3)C1)C2 (centres undefined) | 38.5% |
| CCn1c(C)c(C(C)=O)c(N2CCCCC2)nc1=S | -8.0% |
| CN(C)C(=O)CN(C)S(=O)(=O)c1ccc(Cl)cc1 | 0.1% |

Later entries:
| Structure | AmpC inh no det |
| --- | --- |
| Fc1cc(F)c2nc(N3CCOCC3)sc2c1 | -0.3% |
| CCC(=O)Nc1sc(C(=O)OC)c(C)c1C(=O)OC | 32.3% |
| Cc1ccc(N2CCN(c3ccc(C)cc3)C(CC(=O)O)C2=O)cc1 (centres undefined) | -4.1% |
| CCN1C=C(Cc2cccs2)C2=C(C1)C(c1cccs1)C(C#N)=C(N)O2 (centres undefined) | 24.2% |
| C[C@H](C[C@H](N)C(=O)O)C(=O)O | 23.2% |
| CC(=O)Nc1sc(NC(=O)c2ccccc2)nc1-c1cccs1 | -13.9% |
| COc1ccc(-c2nc(C#N)c(N3CCOCC3)o2)cc1OC | 34.7% |
| Cc1nn(-c2ccccc2)c(C)c1CCC(=O)O | 6.0% |
| CCOC(=O)c1ccc(NC(=O)CCc2nc(-c3ccccc3Cl)no2)cc1 | -5.8% |
| c1ccc(Cc2nnc(-c3ccccc3)o2)cc1 | 2.5% |
| FC(F)(F)c1ccccc1-c1ccc2ncnc(N3CCOCC3)c2c1 | 120.2% |
| CCOC(=O)c1cc2c(n(-c3ccccc3)c1=O)CC(C)(C)CC2=O | 7.5% |
| Cc1ccc(C(=O)N(CN2CCCC2=O)c2ccccc2)cc1C | 32.9% |
| CC(=O)c1cccc(N(CC(=O)Nc2cccnc2)S(C)(=O)=O)c1 | -6.6% |
| Cc1ccccc1-n1c(=O)cc(N2CCN(C(=O)c3ccco3)CC2)[nH]c1=O | 5.6% |
| CC(C)(CN=C1NS(=O)(=O)c2ccccc21)CNC(=O)CN1C(=O)c2ccccc2C1=O | 11.3% |
| CCOC(=O)C1CCN(CC(O)COc2ccc(C(C)=O)cc2)CC1 (centres undefined) | 3.16µM*[single pt active] |
| O=C(CS(=O)(=O)c1cn(Cc2ccccc2Cl)c2ccccc12)N1CCOCC1 | 78.3% |
| COc1ccc(/C(N)=C/C(=O)C(C)(C)C)cc1 | 12.4% |
| O=C(CCCC(=O)N(CC(=O)NC1CCCC1)Cc1ccccc1Cl)Nc1ccccn1 | ? |
| CCOC(=O)CN1C(=O)C(O)(c2c(C)[nH]c3ccccc23)c2ccccc21 (centres undefined) | 22.6% |
| Cn1cccc1C(=O)N1CCC2(CC1)CN(c1ccncc1)C2 | -3.3% |
| CCOC(=O)c1cnn(CCOC(=O)c2cccs2)c1NC(=O)c1cccs1 | 19.2% |
| C=CCSc1ncccc1C(=O)O | -6.4% |

Other compounds:
Compound	AmpC inh no det
N=C(N)SCc1ccc(Cl)cc1Cl (tested in a mixture with another compound)	-19.7%[5.75 µM]
O=c1[nH]c2cc3c(cc2cc1CN(CC1CCCO1)S(=O)(=O)c1ccc(Cl)cc1)OCCO3 (centres undefined)	-7.1%
CCOC(=O)N1CCC(N2CC34C=CC(O3)C(C(=O)O)C4C2=O)CC1 (centres undefined)	2.2%
CC(=O)Nc1cccc2c1C(=O)NC2=O	-3.2%
Cc1nc(NC2=NCN(CCc3ccccc3)CN2)nc2c(C)cccc12	-9.9%
O=C1c2ccccc2C(=O)N1CC1c2ccccc2CCN1S(=O)(=O)c1cnc[nH]1 (centres undefined)	23.3%
COc1ccc(CCN2C(=O)CC(Sc3ncccc3C(=O)O)C2=O)cc1OC (centres undefined)	1.5%
O=C(Nc1ccc2c(c1)OCCO2)c1ccncc1	-8.0%
CCc1nn2c(N3CCOCC3)cc(C)nc2c1-c1ccc(F)cc1	87.5%
CO[C@H]1[C@H](O)[C@H](O[C@@H]2[C@H](Oc3cccc4c(O)c5c(=O)oc6ccc(C)c7c(=O)oc(c34)c5c67)O[C@@H](C)[C@H](O)[C@H]2O)O[C@@H](C)[C@@H]1O	-3.0%[5.75 µM]
O=C(CN1CCN(Cc2ccccc2Cl)C1=O)N1CCCCCC1	30.8%
CCCCN=C(C)c1c(O)c2ccccc2oc1=O	9.5%
CC1Cc2nc(SCC(=O)Nc3ccc4c(c3)OCO4)n(-c3ccc(F)cc3)c(=O)c2S1 (centres undefined)	24.1%
N#Cc1cccc(C(c2nnnn2Cc2ccccc2)N2CCCC2)c1 (centres undefined)	14.3%
COc1ccc(OC)c(N(CC(=O)N2CCCC2)S(=O)(=O)c2ccc(OC)c(OC)c2)c1	51.2%
Cc1ccc(NC(=O)CCC(=O)O)cc1F	-3.0%

2 entries from above, field by field.
CO[C@H]1[C@H](O)[C@H](O[C@@H]2[C@H](Oc3cccc4c(O)c5c(=O)oc6ccc(C)c7c(=O)oc(c34)c5c67)O[C@@H](C)[C@H](O)[C@H]2O)O[C@@H](C)[C@@H]1O
  AmpC inh no det = -3.0%[5.75 µM]
O=C(CN1CCN(Cc2ccccc2Cl)C1=O)N1CCCCCC1
  AmpC inh no det = 30.8%

Following part
Compound	AmpC inh no det
O=C(Cc1ccccc1)Nc1cccc(-c2nc3ncccc3o2)c1	3.3%
COc1ccc2nc(N3CCC(O)CC3)c(C#N)cc2c1	16.2%
Cc1cccc(-n2c(-c3ccco3)nc3ccccc3c2=O)n1	-2.1%
CCOCC(=O)Nc1nnc(COCC)s1	-23.0%
C=CCc1ccccc1OCC(O)CN1CCN(C(=O)OCC)CC1 (centres undefined)	91.6%
Cc1ccc(C)c(N2CCN(C(=O)CCc3nc4ccccc4[nH]3)CC2)c1	86.3%
Oc1ccc2c3c1O[C@@H]1c4[nH]c5c(c4C[C@@]4(O)[C@@H](C2)N(CC2CC2)CC[C@]314)C[C@]1(O)[C@@H]2Cc3ccc(O)c4c3[C@@]1(CCN2CC1CC1)[C@H]5O4	23.1%
Cc1cc(OCC(=O)O)c2ccccc2n1	4.2%
COc1cc(C(=O)Nc2c(C)cc(C)cc2C)c(-n2cnnn2)cc1OC	12.8%
CCN=C1SC(C(=O)Nc2cccc(OCC)c2)CC(=O)N1CC (centres undefined)	32.9%
Cc1cc(=O)[nH]c2n[nH]c(-c3ccccc3)c12	-6.2%
CCOc1ccc(-c2nnn(CC(=O)N3CCN(c4ccc(F)cc4)CC3)n2)cc1OCC	67.6%
CCN(CC)N=O	-0.1%
COC(=O)C1=C2SC(C)C(=O)N2C(N)=C(C#N)C1c1ccc(OC)c(OC)c1 (centres undefined)	69.4%
CCc1nnc(NC(=O)CSc2nnc(COc3ccccc3C)o2)s1	12.6µM*[single pt active]
CCOc1ccc(S(=O)(=O)N2CCC(C(N)=O)CC2)c2ccccc12	88.4%

Some of the entries above, set out differently.
CCN=C1SC(C(=O)Nc2cccc(OCC)c2)CC(=O)N1CC (centres undefined)
- AmpC inh no det: 32.9%

Cc1cc(=O)[nH]c2n[nH]c(-c3ccccc3)c12
- AmpC inh no det: -6.2%

CCOc1ccc(-c2nnn(CC(=O)N3CCN(c4ccc(F)cc4)CC3)n2)cc1OCC
- AmpC inh no det: 67.6%

CCN(CC)N=O
- AmpC inh no det: -0.1%

Next part
Compound	AmpC inh no det
COc1ccccc1CNC(=O)CNC(=O)Cn1cnc2ccccc2c1=O	37.1%
CCCC(=O)Nc1ccc(C(=O)n2nnc3ccccc32)cc1	18.8%
O=S(=O)(c1cccs1)N1CCC(Cc2ccccc2)CC1	4.4%
CCc1nnc(NC(=O)Cn2nnc(-c3ccccc3F)n2)s1	-8.1%
CCOc1ccccc1N1CCN(Cc2ccc(OC)c(OC)c2)CC1	25.1%
CC(=O)Nc1ccc2oc(-c3cc(F)c(F)cc3Cl)nc2c1	36.9%
Cc1cc(C)n(CCOC(=O)c2sc3ccccc3c2Cl)n1	102.1%
CC(C)CN(C(=O)COC(=O)c1ccc2c(c1)NC(=O)CS2)C1CCS(=O)(=O)C1 (centres undefined)	36.0%
Cn1cnc([N+](=O)[O-])c1[Se]c1nc(N)nc2c1ncn2[C@@H]1O[C@@H](CO)[C@H](O)[C@@H]1O	3.0%[5.75 µM]
Cc1ccc2[nH]c(=O)c(CN(Cc3ccco3)C(=O)c3ccncc3)cc2c1	22.6%

A portion of the library. The share of hits here may be higher or lower than overall.
